CapD inh: Bacillus anthracis CapD inhibitors, primary screen, biochemical, fluorescence intensity | purified CapD enzyme, fluorescence intensity read-out; stronger effect = lower value; some hits fall short of the stated cut | z-score (test concentration not listed) | AID 492967, 2010 | CapD gamma-glutamyltranspeptidase (Bacillus anthracis Ames Ancestor) | 140,000 tested, 0.23% active;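 active = z-score under -4 in either of two replicates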;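 note: stock transfer was 100 nL into about 40 µL; score is relative to mean and spread of the plate; one replicate is shown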
AID504770: growth inhibition of E. coli YBA685, primary screen, V. cholerae RctB inhibitors; E. coli YBA685 rctB-dependent plasmid, OD600 growth, 3 h; stronger effect = lower value; z-score (test concentration not listed); 130,000 tested, 0.27% active;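 active = z-score under -2 on both plates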;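 note: wells of about 30 µL received 100 nL stock; score is relative to mean and SD of the test wells; the first replicate is given; strong numbers were not always called active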
Numbers without * were called inactive; & = joins results of further samples.

Screening Cc1ccc(C2=NN=C(NC(=O)C(F)(F)F)SC2)cc1 returned CapD inh 0.95 and AID504770 0.5.
For Cc1cc(-c2ccc3ccccc3n2)nc2ccc3ccccc3c12 the results were CapD inh -0.69 and AID504770 0.4.
For CCOc1ccc(OCC)c(N2C(=O)NC(=O)/C(=C\c3ccc4c(c3)OCO4)C2=O)c1 the results were CapD inh 0.7.
For O=C(Cc1cccc2ccccc12)NC1CCCCNC1=O (stereo not drawn) the results were CapD inh -0.86 and AID504770 2.1.
CC(=O)N1CCCC1C(=O)O (stereo not drawn) was read as CapD inh -0.96 and AID504770 1.4&0.
`CCOC(=O)c1ccc(NC(=O)CSc2nc(C)nc3sc4c(c23)CCC4)cc1` gave CapD inh 0.56.
COc1ccc(OC)c(NC(=O)CSc2nc3ccc(N4CCOCC4)cc3c(=O)n2Cc2ccccc2)c1 was read as CapD inh 2.
`COc1ccc(N2C(=O)c3ccccc3NC2c2ccc(OC)c(COc3ccccc3F)c2)cc1` (stereo not drawn) gave CapD inh 4.3.
`Cc1ncc(CO)c2cc(C(=O)Nc3ccccc3)c(=Nc3ccccc3)oc12` gave CapD inh -0.89 and AID504770 -0.25.
`CCOC(=O)c1c(NC(=O)c2ccc(Cl)cc2Cl)sc(C(=O)Nc2ccccc2C)c1C` gave CapD inh 6.5.
`O=C1C=CC(=O)N1Cc1cccs1` gave CapD inh -0.51 and AID504770 -4.2*.
Cc1cccc(CN2C(=O)c3ccccc3S(=O)(=O)c3ccc(C(=O)NCCN4CCCC4)cc32)c1 was read as CapD inh -0.095 and AID504770 -0.35.
CCCCOC(=O)c1ccc(NC(=O)c2c(O)c3cccc4c3n(c2=O)CCC4)cc1 was read as CapD inh -1.3.
For CCN1CCC(N(Cc2ccco2)C(=O)Nc2cc(C)cc(C)c2)CC1 the results were CapD inh -1.7 and AID504770 -0.55.
For OCCCNc1ncnc2oc(-c3ccccc3)c(-c3ccccc3)c12 the results were CapD inh 74 and AID504770 -0.55.
Screening COc1ccccc1NC(=O)C1=C(C)NC(SCC(N)=O)=C(C#N)C1c1ccccc1 (stereo not drawn) returned CapD inh 0.45.
`CCOc1ccc(CCNc2ccc3nncn3n2)cc1OCC` gave CapD inh -0.18 and AID504770 -0.2.
Screening COc1ccccc1CN1CC(C(=O)NC2CCCCC2)CC1=O (stereo not drawn) returned CapD inh -0.17 and AID504770 0.3.
For CN(C1CCCCC1)S(=O)(=O)c1csc(C(N)=O)c1 the results were CapD inh -0.13 and AID504770 -0.45.
O=C(COC(=O)c1c2c(nc3ccccc13)CCCC2)Nc1nc2ccccc2s1 was read as CapD inh -0.045 and AID504770 0.05.
Cc1cccc(CSC2=NCCN2C(=O)c2cccs2)c1 was read as AID504770 -1.1.
Nn1c(SCc2c(Cl)cccc2Cl)nnc1-c1cccs1 was read as CapD inh 0.76.
For COc1cccc(OC)c1C(=O)Nc1ccccn1 the results were CapD inh 0.7 and AID504770 0.25.
Screening O=C(c1oc(=O)c2ccccc2c1-c1ccccc1)N1CCC(O)CC1 returned CapD inh -0.86 and AID504770 0.55.
Screening COc1cc(CCC(C)NCc2ccccc2)ccc1O (stereo not drawn) returned CapD inh 0.72 and AID504770 -0.6.
For Cc1cc(C)nc(NC(=O)c2c(C)nc3sccn23)c1 the results were CapD inh 1 and AID504770 0.
`O=C(OCC1C(COC(=O)C2CC2)C1(Cl)Cl)C1CC1` (stereo not drawn) gave CapD inh -0.08 and AID504770 0.65.
For COc1ccc(Br)cc1C1C(N2C(=O)c3cccc([N+](=O)[O-])c3C2=O)C(=O)N1c1ccc(Cl)cc1 (stereo not drawn) the results were CapD inh -0.16.
Screening CC(C)C(=O)Nc1cnc2ccccc2c1 returned CapD inh 7.6 and AID504770 -0.35.
For CC(C)(C)C(=O)CSc1nc2c(c(-c3cccs3)c1C#N)CCC2 the results were CapD inh 0.96.
`O/N=C(\CN1CCCCC1)c1ccccc1` gave CapD inh -0.82 and AID504770 -0.1.
`O=C(c1cnn2c(C(F)F)cc(-c3ccccc3)nc12)N1CCCC1` gave AID504770 -0.45.
`CC(Sc1ccc(S(=O)(=O)N2CCN(C)CC2)cn1)C(=O)NCC1CCCCC1` (stereo not drawn) gave AID504770 -0.35.
Cc1cc2oc(=O)cc(CN3CCC(C)CC3)c2cc1C was read as AID504770 0.25.
`COC(=O)c1c(C)nc2ccccc2c1C(=O)O` gave CapD inh 0.3 and AID504770 -0.45.
`COc1ccccc1COCC(O)CN(Cc1ccco1)Cc1ccccc1O` (stereo not drawn) gave AID504770 -0.45.
`CN1C(=O)C2(/C(=C(/O)c3ccc(Cl)cc3)C(=O)C(=O)N2CC2CCCO2)c2ccccc21` (stereo not drawn) gave CapD inh -0.21 and AID504770 -0.65.
For COc1c(C(=O)Nc2ccc(Cl)cc2)cnc2c1c(C)nn2C the results were CapD inh -0.26 and AID504770 0.7.
For COc1ccc(-n2nc3c(c2NC(=O)c2ccc(S(=O)(=O)N4CCOCC4)cc2)CSC3)cc1 the results were CapD inh -0.08.
For CC(C(=O)N1CCNC1=O)N1CCCC1c1cccs1 (stereo not drawn) the results were AID504770 -0.6.
For CCC1CC(CSc2ncn[nH]2)OC1=O (stereo not drawn) the results were CapD inh 0.02 and AID504770 0.1.
Screening O=C(NCc1nc(-c2ccccc2Cl)no1)c1cccs1 returned CapD inh 0.06 and AID504770 -1.2.
`CCC(=O)NC(=S)c1c(C)nc2sccn12` gave AID504770 -0.65.
`C=CCSc1nnnn1-c1c(C)cccc1C` gave CapD inh 0.39.
`CCc1cccc(NC(=O)CC2SC(N3CCCC3)=NC2=O)c1` (stereo not drawn) gave AID504770 0.15.
`C=CCNC(=O)C(=O)c1cccn1-c1c(C(=O)OCC)cnn1-c1ccccc1` gave CapD inh -1.1.
COC(=O)c1cscc1Sc1ccc(Cl)cc1 was read as CapD inh -0.37.
O=C1CN=C(c2ccccc2Cl)c2cc(Br)ccc2N1 was read as CapD inh -0.15.
`CCOC(=O)c1sc2sc(C(=O)c3ccc(Cl)cc3)c(C)c2c1C` gave CapD inh -0.2.
For CC1(C)CC(NC(=O)C2CCCCC2)CC(C)(C)N1 the results were AID504770 0.35.
`CC(NC(=O)OCCc1ccc(Cl)cc1)C(=O)Nc1ccc2ccccc2c1` (stereo not drawn) gave CapD inh 1.
Cc1ccccc1NC(=O)C1Cc2ccccc2C(=O)O1 (stereo not drawn) was read as CapD inh 0.005 and AID504770 -0.75.
CCc1c(C#N)sc(C(N)=O)c1CC was read as CapD inh 0.21 and AID504770 -1.1.
`O=C(NCc1cccnc1)c1cn(Cc2ccccc2)nn1` gave AID504770 0.05.
CN1C(=O)c2ccc(S(=O)(=O)c3ccc(C(=O)O)cc3)cc2C1=O was read as CapD inh 0.03 and AID504770 -0.05.
Screening CCOC(=O)c1nc(N2CCC(C(N)=O)(N3CCCCC3)CC2)c2c3c(sc2n1)CCCC3 returned CapD inh 2.9.
Screening CN1CCN(c2nc3c(c(=O)n(C)c(=O)n3C)n2Cc2ccc(Cl)cc2Cl)CC1 returned CapD inh -0.4.
For COCCOC(=O)C1=C(N)OC2=C(C(=O)CCC2)C1c1ccc(Br)cc1 (stereo not drawn) the results were CapD inh -0.65.
CCOc1ccc(-n2c(-c3nn(C)cc3Cl)n[nH]c2=S)cc1 was read as CapD inh -0.31 and AID504770 0.15.
Screening CCOC(=O)c1sc2ncnc(Nc3ccc(OC)cc3OC)c2c1C returned CapD inh -0.54.

Nothing new here: 13 of the compounds above.
O=C1CN=C(c2ccccc2Cl)c2cc(Br)ccc2N1 was read as CapD inh -0.15.
`CCOC(=O)c1sc2sc(C(=O)c3ccc(Cl)cc3)c(C)c2c1C` gave CapD inh -0.2.
For CC1(C)CC(NC(=O)C2CCCCC2)CC(C)(C)N1 the results were AID504770 0.35.
`CC(NC(=O)OCCc1ccc(Cl)cc1)C(=O)Nc1ccc2ccccc2c1` (stereo not drawn) gave CapD inh 1.
Cc1ccccc1NC(=O)C1Cc2ccccc2C(=O)O1 (stereo not drawn) was read as CapD inh 0.005 and AID504770 -0.75.
CCc1c(C#N)sc(C(N)=O)c1CC was read as CapD inh 0.21 and AID504770 -1.1.
`O=C(NCc1cccnc1)c1cn(Cc2ccccc2)nn1` gave AID504770 0.05.
CN1C(=O)c2ccc(S(=O)(=O)c3ccc(C(=O)O)cc3)cc2C1=O was read as CapD inh 0.03 and AID504770 -0.05.
Screening CCOC(=O)c1nc(N2CCC(C(N)=O)(N3CCCCC3)CC2)c2c3c(sc2n1)CCCC3 returned CapD inh 2.9.
Screening CN1CCN(c2nc3c(c(=O)n(C)c(=O)n3C)n2Cc2ccc(Cl)cc2Cl)CC1 returned CapD inh -0.4.
For COCCOC(=O)C1=C(N)OC2=C(C(=O)CCC2)C1c1ccc(Br)cc1 (stereo not drawn) the results were CapD inh -0.65.
CCOc1ccc(-n2c(-c3nn(C)cc3Cl)n[nH]c2=S)cc1 was read as CapD inh -0.31 and AID504770 0.15.
Screening CCOC(=O)c1sc2ncnc(Nc3ccc(OC)cc3OC)c2c1C returned CapD inh -0.54.

Remaining list, next part:
Cc1cc(/C=C(\C#N)S(=O)(=O)c2ccccc2)c(C)s1 was read as CapD inh 3 and AID504770 0.8.
CC1CCc2nn(CC(=O)NCCC3=CCCCC3)cc2C1 (stereo not drawn) was read as CapD inh 0 and AID504770 0.05.
`Cc1ncc(-c2nc3ccccc3o2)c(-c2ccncc2)n1` gave CapD inh 0.82.
Screening CC1CC(C)CN(S(=O)(=O)c2cccc3nonc23)C1 (stereo not drawn) returned CapD inh 0.36.
For COc1ccc(Cl)cc1NC(=O)CSCc1ccco1 the results were CapD inh -0.97 and AID504770 -0.1.
O/N=C(/Cn1nnc(N2CCCC2)n1)c1ccc(Cl)cc1 was read as CapD inh 0.23 and AID504770 -0.7.
For c1cn2c(NC3CCCC3)c(-c3ccc(N4CCOCC4)cc3)nc2cn1 the results were CapD inh 0.57 and AID504770 -0.85.
Screening CC(C)CC(=O)NC(=S)Nc1ccc(S(=O)(=O)N=C(N)N)cc1 returned CapD inh -0.96 and AID504770 2.5.
`Clc1cc(Cl)c(OCc2cc(-c3ccccc3Cl)no2)cc1Cl` gave CapD inh -0.86.
`Cc1cccc(N(C)Cc2nnc(-c3ccccc3Cl)o2)c1` gave CapD inh 0.51 and AID504770 0.15.
NC(=NCc1ccco1)NC(=O)c1ccc(Cl)cc1 was read as CapD inh -0.82 and AID504770 -0.05.
Screening COC(=O)C1CCN(S(=O)(=O)c2cccc3nsnc23)CC1 returned CapD inh -0.12 and AID504770 -0.4.
For C=CCNC(=O)c1oc2ccc(S(=O)(=O)N3CCCCCC3)cc2c1C the results were CapD inh -0.23 and AID504770 -0.2.
For CCOc1ccc(S(=O)(=O)NN=C2CCN(C(C)=O)CC2)cc1 the results were AID504770 -0.9.
`CC(=O)N1CCc2cc(C(=O)O)ccc21` gave AID504770 -0.3.
C=CCn1c(C)cc(C(=O)COC(=O)c2ccc(N3CCCC3=O)cc2)c1C was read as AID504770 0.15.
O=c1c2ccccc2c(-c2ccc(F)cc2)nn1CCO was read as CapD inh -0.23 and AID504770 -0.45.
Cn1nnnc1SCC(=O)NC(C(=O)O)(c1ccccc1)c1ccccc1 was read as CapD inh -0.21 and AID504770 -0.45.
Cc1sc(NC(=O)c2cc3n(n2)C(C(F)(F)F)CC(c2cccs2)N3)c(C(=O)OC(C)C)c1C (stereo not drawn) was read as CapD inh 0.82.
`Nc1cnc2cccc3c2c1-c1ccccc1C3=O` gave AID504770 2.4.
`COC(=O)c1ccc(C)c(NC(=O)C(C)Sc2ccccc2)c1` (stereo not drawn) gave CapD inh -0.39 and AID504770 -0.2.
For CC(Sc1nnc(-c2ccco2)n1Cc1ccccc1)c1nc2ccccc2c(=O)[nH]1 (stereo not drawn) the results were AID504770 -0.35.
`Cc1ccc(CC2SC(=Nc3ccccc3)NC2=O)cc1` (stereo not drawn) gave CapD inh -0.18.
For COc1ncccc1C(=O)Nc1ccccc1Cl the results were CapD inh 0.33.
CCc1nnc(NC(=O)CSc2nc(C(F)(F)F)cc(C)c2C#N)s1 was read as CapD inh -0.31.
Screening O=C(Nc1ccc(Br)cn1)c1ccccc1 returned CapD inh -0.19 and AID504770 -0.4.
For CCCC(=O)c1ccc(-c2ccccc2)cc1 the results were CapD inh -0.11 and AID504770 0.05.
O=C(O)/C=C/C(=O)N1CCN(S(=O)(=O)c2ccccc2)CC1 was read as AID504770 -0.3.
O=C(NCC(=O)c1cccs1)c1ccc(-c2ccccc2F)o1 was read as AID504770 0.55.
For Nc1ccc2nc(NC(=O)C34CC5CC(CC(C5)C3)C4)sc2c1 the results were CapD inh -0.39 and AID504770 -1.
COc1cc(C(=O)Nc2ccccc2Sc2ccc(Cl)cc2[N+](=O)[O-])cc(OC)c1OC was read as CapD inh 0.12.
O=C(O)C1CC(c2ccccc2O)=NO1 (stereo not drawn) was read as CapD inh 0.57 and AID504770 1.6.
CCC(=O)Oc1ccc2c(c1)nc(C)n2CC was read as AID504770 -0.05.
Cc1nc(Cc2nnc(SC(C)c3nc4scc(-c5ccccc5)c4c(=O)[nH]3)o2)cs1 (stereo not drawn) was read as AID504770 -0.2.
CCN=C1S/C(=C\c2ccc(N3CCOCC3)cc2C)C(=O)N1CC was read as CapD inh -0.28 and AID504770 -0.35.
N#Cc1c(N)nc(SCC(=O)OCc2ccccc2)c(C#N)c1-c1ccc(O)cc1 was read as CapD inh 2.8.
`COc1cc(OC)cc(-c2nc3c4ccccc4c4ccccc4c3[nH]2)c1` gave CapD inh 33.
Screening CCN(CC)C(=O)C(Sc1nnc(C2CC2)n1C1CC1)c1ccccc1 (stereo not drawn) returned AID504770 -0.65.
Screening COc1ccc(NC(=O)CSc2nc3n[nH]c(C)c3c(=N)n2-c2ccc(Cl)c(C)c2)cc1OC returned CapD inh 3.1.
`O=S(=O)(c1ccccc1)N1CCC(c2nc(-c3cccs3)no2)CC1` gave CapD inh -0.065.
For O=C(Nc1ccc(F)cc1)NC1CCN(CC(=O)c2ccc(F)cc2)CC1 the results were AID504770 1.7.

Screens: PubChem, ICCB-Longwood Screening Facility, Harvard Medical School
